Bioassay records (PubChem)
YjeE inh = YjeE (TsaE) inhibition, E. coli; P0AF67; purified YjeE, fluorescence polarisation of a bound ADP probe; actives 0.05% (n = 71,000); Potency, µM; active = well fitted falling curve; inconclusive = weaker or top-dose-only fall, or a rising curve; inactive = flat or poorly fitted curve;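 note: top concentration of the series not given in the record; excess ADP was the control for the full effect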
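Fluorescence polarization of a BODIPY Texas Red–ADP probe (2 uM) bound to purified YjeE (10 uM) was read after 15 min room-temperature incubation with compounds. Loss of polarization marks inhibitors; ADP serves as titrated control.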
PK Bst = modulators of Bacillus stearothermophilus pyruvate kinase; actives 1.2% (n = 51,000); Potency, µM; partly purified Bacillus stearothermophilus pyruvate kinase, luminescence ATP production; ribose 5-phosphate activator present at AC10; in the data active means potency below about 11 µM; inconclusive means mostly about 12 µM to 25 µM; inactive means weaker than that;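 the screen sought inhibitors and activators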;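 note: potency is the fitted concentration of half-maximal effect; scaled between full activation by ribose 5 phosphate and full inhibition by luteolin; about four in five hits inhibit and the cells do not say which; series up to 57 µM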
Numbers without * were called inactive; i = inactive; u = inconclusive; x = not tested or not shown. Not all compounds are listed; count on the stated rates, not on these rows.

SMILES	YjeE inh	PK Bst
Oc1ccc(-c2nc3ncccn3c2Nc2ccc3c(c2)OCCO3)cc1	i	>57
O=C(Cn1nnc2ccccc2c1=O)NC1CCCc2ccccc21 (stereo not drawn)	i	>57
Cc1cccc(N(Cc2nnc3n2CCCCC3)C(=O)Nc2ccccc2)c1	i	>57
CC(=O)N(Cc1cccnc1)Cc1cc2ccc(C)cc2[nH]c1=O	i	>57
COc1cccc(/C=N/n2c(-c3ccco3)nc3ccccc3c2=O)c1	i	>57
COc1ccc(C2CC(C(F)(F)F)n3ncc(C(=O)Nc4cccc(O)c4)c3N2)cc1OC (stereo not drawn)	x	>25.6
CN(CC(=O)Nc1cccnc1)S(=O)(=O)c1cc(Cl)ccc1Cl	i	>57
Cc1ccc2cc(CN(CCO)Cc3nnnn3Cc3ccc(F)cc3)c(=O)[nH]c2c1	i	>57
CN(C)c1nc(NS(=O)(=O)c2ccc(Cl)cc2)nc(N(C)C)n1	i	>57
COc1ccc(NC(=O)Nc2nnc(N3CCC(C)CC3)s2)cc1OC	i	x
Cc1ccc(C2CC(c3ccccc3)n3ncnc3N2)cc1 (stereo not drawn)	i	x
CC(OC(=O)c1cc(=O)[nH]c2ccccc12)c1ccccc1 (stereo not drawn)	i	>57
CC(=O)C1=C(C)N=c2s/c(=C/c3ccc4c(c3)OCO4)c(=O)n2C1c1ccc(N(C)C)cc1 (stereo not drawn)	i	>57
O=C(Nc1ccccc1)N1CC2(CCN(C(=O)c3cnccn3)CC2)C1	i	x
CC1CCc2c(nc3ncnn3c2N2CCN(c3ccccc3)CC2)C1 (stereo not drawn)	i	>57
Cc1cccc(-n2cnc3cc(C(=O)N4CCCCC4)ccc32)c1	i	>57
CCOC(=O)CCNC(=O)Nc1ccc2nc(C)n(Cc3cccc(Cl)c3)c(=O)c2c1	i	>57
C[C@@]12CCC(=O)C=C1CC[C@H]1[C@@H]2[C@@H](O)C[C@]2(C)[C@@H]1CC[C@@]2(O)C(=O)CO	i	x
O=S(=O)(c1ccc(NCC2CCCCC2)nc1)N1CCOCC1	i	>57
c1cncc(Nc2nc(-c3cccnc3)cs2)c1	i	x
CCOC(=O)Cc1csc(NC(=O)c2c(O)c3ccccc3n(C)c2=O)n1	i	>57
Cc1ccc(N(Cc2ccco2)C(=O)c2cccc(S(=O)(=O)N(C)C)c2)cc1	i	>57
O=C(CSc1nc2ccccc2[nH]1)N1CCCCC1	u	x
CN(C)c1ncnc2ccc(-c3cccc(NS(C)(=O)=O)c3)cc12	i	x
Cc1ccn(C(=O)c2ccc(NC(=O)C3CCCCC3)cc2)n1	i	>11.4
CCN(C(=O)Cc1cccs1)c1nnc(-c2cc(OC)c(OC)c(OC)c2)s1	i	>57
O=S(=O)(Cc1ccccc1)Nc1ccc(S(=O)(=O)NCC2CCCO2)cc1 (stereo not drawn)	i	>57
COc1ccc(NC(=O)CSc2nc3c(c(=O)n2-c2ccccc2OC)SCC3)cc1	i	x
Nc1cc(OC(=O)c2cccs2)nn1S(=O)(=O)c1ccccc1	i	>57
O=C(CN1C(=O)NC2(CCSC2)C1=O)N1CCN(c2ccc(F)cc2)CC1 (stereo not drawn)	i	>57
Cc1c(CCC(=O)O)c(=O)oc2cc3occ(-c4ccc(F)cc4)c3cc12	i	8.31*
COc1cc(C(=O)NCc2cn3cccc(C)c3n2)cc(OC)c1OC	i	x
O=C(c1ccccc1Oc1ccccc1)N1CCN(c2ccccc2)CC1	i	x
CCOC(=O)c1cc(NC(=O)c2cnccn2)cc(C(=O)OCC)c1	i	>57
COc1ccccc1-c1nnc(SCC(=O)N2CC(C)CC(C)C2)o1 (stereo not drawn)	i	>57
COc1ccc(C(=O)CN2C(=O)C(C)(C)Oc3ccc(C(=O)N4CCCCCC4)cc32)cc1	i	>57
CNC(=O)c1cc2c(cn1)[nH]c1ccccc12	i	x
COc1ccccc1C(OC(=O)c1ccco1)C(=O)NC(C)(C)C (stereo not drawn)	i	>11.4
CC1CCCCC1NC(=O)CSc1nnc(COc2ccccc2Cl)o1 (stereo not drawn)	i	>57
COc1ccc(N2CCN(CCCNC(=O)CN3CCN(Cc4ccccc4C)C3=O)CC2)cc1	i	>57
O=C1CC(N2CCN(C/C=C/c3ccccc3)CC2)C(=O)N1Cc1cccs1 (stereo not drawn)	i	>57
CCN(C(=O)c1cc(Cl)ccc1OC)c1ccccc1	i	x
CCOc1ccc(N(CC(=O)Nc2cccc(OC)c2)S(=O)(=O)c2c(C)noc2C)cc1	i	x
CCCn1c(N2CCN(S(=O)(=O)Cc3ccccc3)CC2)nc2ccccc21	i	>57
NC(=O)c1cc(N2C(=O)C3CC=CCC3C2=O)ccc1N1CCCCC1 (stereo not drawn)	i	x
Cc1ccc(NC(=O)CSC2=C(C#N)C(c3ccc4c(c3)OCO4)CC(=O)N2)cc1C (stereo not drawn)	x	>25.6
O=C(c1cnccn1)N1CCC2(CCCN(c3cccc(-c4ccccc4)c3)C2)CC1	i	x
Cc1cc(C(=O)Nc2ccc(C(=O)O)cc2)c(-c2ccccc2)o1	i	>57
COc1ccc(C(=O)[C@H](Br)[C@H](Br)C(=O)O)cc1	i	x
COCCn1c(C2CCCCC2)nc2sc3ccccc3c(=O)c2c1=O	i	>57

Continuation:
SMILES	YjeE inh	PK Bst
CCN(CC)c1ccc(C(=O)Nc2cccc(F)c2)cc1	i	x
Cc1ccccc1Cn1nc(C)c(NC(=O)c2noc3c2CCCC3)c1C	i	>57
CCn1c(SCC(=O)Nc2ccc3c(c2)OCCO3)nc2c(c1=O)SC(C)C2 (stereo not drawn)	i	>57
COc1cccc(N2C(=O)C(CC(=O)Nc3ccccc3)N(C3CCCCC3)C2=O)c1 (stereo not drawn)	i	>57
Cc1ccccc1Cn1nc(C)c(NC(=O)c2cc3nc(-c4ccco4)cc(C(F)(F)F)n3n2)c1C	i	>57
O=C(CCCn1c(=S)[nH]c2ccccc2c1=O)NC1CCCC1	i	>57
CC(C)CNS(=O)(=O)c1ccc(CCC(=O)NCc2ccco2)cc1	i	>57
O=C(Nc1ccc(Br)c(Cl)c1)C1CC1	i	>57
CCCn1c(SCC(=O)N2CCCC2)nc2c1c(=O)n(C)c(=O)n2C	i	>57
O=C(CN1CCCc2ccccc21)NCc1ccc2c(c1)OCO2	i	>57
Cn1cc(S(=O)(=O)CC(=O)Nc2ccc3c(c2)OCO3)c2ccccc21	i	>57
Cc1ccc(CNc2nc3ccccc3s2)s1	i	>57
c1cncc(-c2noc(-c3ccco3)n2)c1	i	x
CCOC(=O)Cn1nc(-c2ccc(C)cc2)ccc1=O	i	>57
c1nc2sc3c(c2c2nnnn12)CCCC3	i	x
C=CCn1c(=O)c(C(=O)Nc2ccccc2O)c(O)c2ccccc21	i	>57
O=C(c1ccc(S(=O)(=O)N2CCOCC2)cc1)N1CCN(c2ccccc2)CC1	i	x
CS(=O)(=O)Nc1cccc(-c2cc(NCc3ccccc3)ncn2)c1	i	x
O=C(CSc1nc2ccccc2o1)N1CCN(c2ccc(Cl)cc2)CC1	i	>57
CCCN1C=CC(=C2C(=O)c3ccccc3C2=O)C=C1	i	x
COC(=O)c1ccc(CN(c2ccc(C)cc2)S(=O)(=O)c2ccc3c(c2)OCCO3)o1	i	>57
CCC(C(=O)Nc1nnc(-c2ccco2)s1)c1ccccc1 (stereo not drawn)	i	>57
Cc1cc(C)nc(SCc2n[nH]c(=S)n2C)n1	i	>57
Cc1cccc(-c2noc(CN(C(=O)C34CC5CC(CC(C5)C3)C4)C(C)C)n2)c1	i	>57
O=S(=O)(C[C@H](O)C(Cl)(Cl)Cl)NNc1ccccc1	i	x

Complete entries from above:
Profile of CCC(C(=O)Nc1nnc(-c2ccco2)s1)c1ccccc1 (stereo not drawn) : YjeE inh = i; PK Bst = >57
Profile of C=CCn1c(=O)c(C(=O)Nc2ccccc2O)c(O)c2ccccc21 : YjeE inh = i; PK Bst = >57

The listing picks up, starting two compounds before the break.
SMILES	YjeE inh	PK Bst
Cc1cccc(-c2noc(CN(C(=O)C34CC5CC(CC(C5)C3)C4)C(C)C)n2)c1	i	>57
O=S(=O)(C[C@H](O)C(Cl)(Cl)Cl)NNc1ccccc1	i	x
CCCCn1c(=NC(=O)c2ccco2)c(C(=O)OCC)cc2c(=O)n3ccccc3nc21	i	>57
CN(O)/C=c1/ccc2c(n1)C(=O)C=CC=2	i	>57
COc1ccc(S(=O)(=O)N(CC(=O)Nc2cc(C)on2)Cc2ccccc2)cc1	i	>57
Nc1nc2ccc(S(=O)(=O)c3ccc4nc(N)sc4c3)cc2s1	i	>57
Cc1ccccc1CN1CCNC(=O)C1CC(=O)O (stereo not drawn)	i	x
CN(Cc1ccccc1)C(=O)CCC(=O)N(C)Cc1ccccc1	i	x
CCc1nnc(NC(=O)CSc2nccn2-c2ccccc2)s1	i	>57
COC(=O)c1sc(S(=O)(=O)NCc2cccs2)c(C(=O)OC)c1C	i	i
CN1C(=O)/C(=C2/C=CC=CN2C)OC1=S	i	x
CCOC(=O)c1[nH]c(=O)[nH]c1CSCCO	i	x
CCN(C)c1ccc(/C=N\n2nnnc2N)cc1	i	x
O=C(CSc1nc(Nc2ccccc2)nc(N2CCOCC2)n1)N1CCCC1	i	x
O=C(Nc1ccccc1N1CCCC1)c1ccc(Br)o1	i	>57
O=S(=O)(/N=C(\c1ccccc1)N1CCOCC1)c1cccs1	i	>57
CC(=O)[C@H]1[C@H](C#N)C[C@H]2[C@@H]3CC=C4C[C@@H](O)CC[C@]4(C)[C@H]3CC[C@@]21C	x	>11.4
COc1cccc(-c2nc(CS(=O)(=O)CC(=O)Nc3c(C)cccc3C)c(C)o2)c1	i	x
NS(=O)(=O)c1ccc(CCNC(=O)c2cncc(Br)c2)cc1	i	>57
O=C1CC(C(=O)Nc2ccc(C(=O)N3CCOCC3)cc2)C2(CCCCC2)O1 (stereo not drawn)	i	>57
COc1ccccc1-c1ccc2ncnc(NC3CCNCC3)c2c1	i	x
CC(=O)Nc1ccc(S(=O)(=O)N2CCN(Cc3ccncc3)CC2)cc1	i	>57
Cc1ccc(S(=O)(=O)N2CCCC(C(=O)NCc3ccccn3)C2)cc1 (stereo not drawn)	i	>57
C=CCn1c(Cc2nc3ccccc3[nH]2)n[nH]c1=S	i	>57
Cc1nc2nc[nH]n2c(=O)c1NC(=O)CCc1ccccc1	i	>57
O=c1c2c3nc4ccccc4nc3n(CC3CCCO3)c2ncn1CCc1ccccc1 (stereo not drawn)	i	>57
O=c1cc[nH]c2c(C(F)(F)F)cccc12	i	>57
CC(C)(C)NC(=O)C(c1ccco1)N(C(=O)Cn1nnc(-c2ccc(F)cc2)n1)c1ccccc1F (stereo not drawn)	i	>57
Cc1cc(C)nc(N2CCCC(C(=O)NC(C)CCc3ccco3)C2)n1 (stereo not drawn)	i	>57
N#Cc1nc(COc2ccc(F)cc2)oc1NCCN1CCOCC1	i	>57
CCN(C(=O)COc1ncnc2ccc(Br)cc12)C1CCS(=O)(=O)C1 (stereo not drawn)	i	>57
c1cc(CSc2nnc(-c3ccc4c(c3)OCO4)o2)ccn1	i	x
COc1ccc(C(=O)N[C@H]2COC(C)(C)O[C@H]2c2ccccc2)cc1	i	>57
CC(C)C(=O)c1cn(CC(=O)NCC2CCCO2)c2ccccc12 (stereo not drawn)	i	>57
CCCC[C@@H]1C[C@H]1C(NS(=O)(=O)c1cccc2cccnc12)c1ccc(-c2ccccc2)cc1 (stereo partly drawn)	i	x
COc1ccccc1-c1nnc2sc(-c3cnccn3)nn12	i	>57
C(=C/c1ccccc1)/c1ccccc1	i	x
O=C(Nc1ccc2c(c1)OCO2)N1CCN(C(=O)C2CCCO2)CC1 (stereo not drawn)	i	>57
CCCOCCOC(=O)c1[nH]c2c(c1C)C(=O)CC(c1cc(OC)ccc1OC)C2 (stereo not drawn)	i	x
COc1cccc(C2=NOC(C(=O)N3CCN(Cc4ccccc4)CC3)C2)c1OC (stereo not drawn)	i	>57
N#Cc1cccc(-c2nc(Nc3ccncc3)c3ccccc3n2)c1	i	x
N#CC1=C(C2CC2)CC(c2ccccc2)C(C#N)=C1N (stereo not drawn)	i	>57
COC(=O)N1CCC2(CCCN(c3cccc(-c4ccccc4)c3)C2)CC1	i	x
CS(=O)CCC(NS(=O)(=O)c1ccccc1)C(=O)O (stereo not drawn)	i	>57
CCc1ccc(-c2nc(CN3CCC(C(=O)N4CCN(c5ccccc5)CC4)CC3)c(C)o2)cc1	i	>57
COc1cc(C)nc(N2CCCC(C(=O)NC3CCC(C)CC3)C2)n1 (stereo not drawn)	i	>57

Individual results from the list:
For PK Bst, `COc1ccc(C(=O)N[C@H]2COC(C)(C)O[C@H]2c2ccccc2)cc1` reads >57
For PK Bst, `Cc1cc(C)nc(N2CCCC(C(=O)NC(C)CCc3ccco3)C2)n1` (stereo not drawn) reads >57
For PK Bst, `N#Cc1nc(COc2ccc(F)cc2)oc1NCCN1CCOCC1` reads >57
For PK Bst, `CCc1ccc(-c2nc(CN3CCC(C(=O)N4CCN(c5ccccc5)CC4)CC3)c(C)o2)cc1` reads >57
